# TRPML1 agonist: qHTS for Agonists of the Human Mucolipin Transient Receptor Potential 1 (TRPML1) | 410,000 compounds, 0.12% hits | activation, % (test concentration not listed) | TRPML1-expressing cells, Ca2+ dye fluorescence, FDSS; host cell line not named in the record; reference of the full effect not given here | Mucolipin-1 (Homo sapiens), Q9GZU1; in the data active = activation above about 50%; inconclusive = about 30% to 50%; inactive = below about 30%; note: 0% is about no effect; the text of the record puts the active cut at 80%
#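 TRPML1-DL cells, Tet-induced overnight (~16 h, 37 degrees C), loaded 45-90 min at room temperature with Ca8 no-wash calcium dye plus quencher. FDSS fluorescence: 10 s baseline, compound pin-transfer, 110 s agonist read, then EC80 54-4 (4uM final) and 110 s antagonist read.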
# TRPV1 potentiator: HTS Assay for Compounds that Act as Potentiators of the Vanilloid Receptor 1. Transient receptor potential cation channel subfamily V member 1 (Homo sapiens), Q8NER1. TRPV1-expressing cells, Fluo-8 calcium influx, capsaicin EC20 potentiation; host cell line not named in the record; control for the full effect not named in the record. potentiation, % at 8.33 µM. 320,000 compounds, 0.02% hits. AID 540277, 2011; active means potentiation above 80%; inconclusive means 30% to 80%; inactive means below 30%; note: 0% is about no effect
#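 Cells expressing TRPV1 were dye-loaded with Fluo-8 and read kinetically: 10 s baseline, 3 min after compound (agonist portion), then 2 min after EC20 capsaicin (allosteric enhancer portion). Calcium-bound dye fluorescence at 480/520 nm.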
# CtBP-E1A blk: qHTS Assay for Inhibitors of the CtBP/E1A Interaction. 340,000 compounds, 0.49% hits. AlphaScreen GST-E1A/His-CtBP binding, 1536-well; stronger effect = lower value; control for the full effect not named in the record. activity change, % (concentration not given with the values); in the data active means activity change below about -65%; inconclusive means about -30% to -65%; inactive means above about -30%; note: % is set by controls: 0 for no effect and ±100 for the full control effect
#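 In 5 uL wells, 23 nL compound meets equimolar GST-E1A and His-CtBP (5X stock 125 nM each) for 2 h, 37 °C. Beads (5X, 50 ug/mL) then 1 h, 37 °C, dark.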
# TRPML1 blocker: qHTS for Inhibitors of the Human Mucolipin Transient Receptor Potential 1 (TRPML1) | Mucolipin-1 (Homo sapiens), Q9GZU1 | TRPML1-inducible cells, Ca2+ dye fluorescence, FDSS; stronger effect = lower value; inhibition of EC80 agonist-evoked calcium signal | activity change, negative = inhibition, % (concentration not given with the values) | 390,000 compounds, 0.02% hits | AID 624415, 2012; in the data active means activity change below about -50%; inconclusive means about -30% to -50%; inactive means above about -30%;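 note: stimulus is agonist 54-4 at its EC80 concentration; % is set by controls: 0 for no effect and ±100 for the full control effect; the text of the record puts the active cut at -80%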
#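 Calcium fluorescence in TRPML1-DL cells induced overnight with Tet: a 110 s read after compound pin addition, then a 110 s antagonist read after challenge with 54-4 at 4 uM final (EC80).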
# D2 PAM: Beta-Arrestin HTS for Positive Allosteric Modulators of the Human D2 Dopamine Receptor: Potentiators | potentiation, % (concentration not given with the values) | D(2) dopamine receptor (Homo sapiens), P14416 | DiscoveRx D2 beta-arrestin cells, luminescence, 90 min; 100% = 57 uM dopamine signal | 360,000 compounds, 0.23% hits; active = potentiation of 50% or more; inconclusive = 30% to 50%; inactive = 30% or less;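 note: tested on top of an EC20 dose of dopamine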
#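 D2 cells co-treated with compound plus 50 nM dopamine (EC20) for 90 min at 37 deg C to detect potentiation. Beta-arrestin recruitment was read as enzyme-fragment luminescence after 1 h at ambient temperature. Full response was set by 57 uM dopamine.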
# Six1-Eya2 blk: qHTS Assay for Inhibitors of the Six1/Eya2 Interaction. Homeobox protein SIX1 (Homo sapiens) + Protein phosphatase EYA2 (Homo sapiens), …. AlphaScreen GST-Six1/His-Eya2 binding, biochemical; stronger effect = lower value; control for the full effect not named in the record. activity change, % (concentration not given with the values). 360,000 compounds, 0.56% hits. AID 651725, 2012; in the data active = activity change below about -65%; inconclusive = about -30% to -65%; inactive = above about -30%; note: % is set by controls: 0 for no effect and ±100 for the full control effect
# Target sequence (O00167 whole entry, looked up): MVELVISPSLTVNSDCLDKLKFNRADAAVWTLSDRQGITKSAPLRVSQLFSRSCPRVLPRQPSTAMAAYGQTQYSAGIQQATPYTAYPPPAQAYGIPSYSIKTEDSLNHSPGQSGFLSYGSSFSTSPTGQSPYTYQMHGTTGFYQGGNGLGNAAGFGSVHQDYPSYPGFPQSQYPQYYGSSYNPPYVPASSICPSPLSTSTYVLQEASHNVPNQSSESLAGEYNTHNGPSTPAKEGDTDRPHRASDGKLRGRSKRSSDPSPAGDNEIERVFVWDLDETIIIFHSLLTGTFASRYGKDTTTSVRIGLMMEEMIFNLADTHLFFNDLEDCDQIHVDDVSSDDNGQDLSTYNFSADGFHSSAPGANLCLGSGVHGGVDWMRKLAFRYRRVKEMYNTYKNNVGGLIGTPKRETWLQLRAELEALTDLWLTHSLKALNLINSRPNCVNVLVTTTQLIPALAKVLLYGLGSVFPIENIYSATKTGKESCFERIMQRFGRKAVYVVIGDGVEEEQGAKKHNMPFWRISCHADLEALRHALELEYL
# Target sequence (Q15475 whole entry, looked up): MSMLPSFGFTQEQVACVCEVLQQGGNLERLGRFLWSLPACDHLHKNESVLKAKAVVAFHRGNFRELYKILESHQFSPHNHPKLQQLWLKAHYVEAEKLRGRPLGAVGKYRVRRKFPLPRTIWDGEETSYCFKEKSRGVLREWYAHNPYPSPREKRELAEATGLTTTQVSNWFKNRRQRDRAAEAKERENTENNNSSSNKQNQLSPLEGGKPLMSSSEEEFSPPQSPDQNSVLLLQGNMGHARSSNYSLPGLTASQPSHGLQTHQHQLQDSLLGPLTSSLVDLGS
#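 GST-Six1 + His-Eya2 (5X stock: 250/500 nM); Tris pH 8.0, 300 mM NaCl, 0.05% BSA, 0.02% Tween 20; GSH donor/Ni acceptor beads; 1 h 37 °C dark; AlphaScreen readout.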
# The depositor's hits bear a star; ? = inconclusive; . = not tested or not shown; & = joins results of further samples. An unsorted share of the library, and some 0.95% of all compounds hit somewhere here.
SMILES,TRPML1 agonist,TRPV1 potentiator,CtBP-E1A blk,TRPML1 blocker,D2 PAM,Six1-Eya2 blk
CC(C)c1ccc(OCC(=O)NCc2ccco2)cc1,1.3,-10,-11,17,18,-5
Cc1ccc(CNS(=O)(=O)c2ccc(-n3cnnn3)c(C)c2)cc1,2.3,-9,-11,1,-2,-4
O=C(NC1CCCCC1)C(Cc1ccccc1)NS(=O)(=O)c1cccs1 (configuration not stated),-0.4,-2,12,-18,-2,5
COc1ccc(NC(=O)c2cc(-c3cccc(OC)c3)on2)cc1,3.1,-40,-12,-7,-9,1
Cc1ccsc1C1C(C#N)=C(N)N(N(C)C)C2=C1C(=O)CCC2 (configuration not stated),0.1,-4,-14,-2,-1,-1
O=C(NCc1ccncc1)C1CCC(=O)N(CCc2ccc(Cl)cc2)C1 (configuration not stated),0.4,-6,8,17,-1,9
Cc1cccc(C)c1NC(=O)CN(C)C(=O)c1ccccc1Sc1ccccc1C#N,-0.8,1,.,25,-16,0
CCOC(=O)C1C(=O)OC2(CCCCC2)C1C(=O)OCC (configuration not stated),0.5,-8,-6,23,-4,5
CCCOc1ccc(C(=O)OCC(=O)c2c(N)n(C)c(=O)n(C)c2=O)cc1OC,0.5,15,0,52,-5,3
COc1cccc(CN2CCSCC2)c1OC,-0.4,4,-2,7,-6,0

# Entries of single compounds from above. Order of values: TRPML1 agonist	TRPV1 potentiator	CtBP-E1A blk	TRPML1 blocker	D2 PAM	Six1-Eya2 blk
# Profile of `Cc1cccc(C)c1NC(=O)CN(C)C(=O)c1ccccc1Sc1ccccc1C#N` = -0.8	1	.	25	-16	0
# Profile of `CCCOc1ccc(C(=O)OCC(=O)c2c(N)n(C)c(=O)n(C)c2=O)cc1OC` = 0.5	15	0	52	-5	3
# Profile of `Cc1ccc(CNS(=O)(=O)c2ccc(-n3cnnn3)c(C)c2)cc1` = 2.3	-9	-11	1	-2	-4
# Profile of `COc1cccc(CN2CCSCC2)c1OC` = -0.4	4	-2	7	-6	0
# Profile of `COc1ccc(NC(=O)c2cc(-c3cccc(OC)c3)on2)cc1` = 3.1	-40	-12	-7	-9	1

# Next section
SMILES,TRPML1 agonist,TRPV1 potentiator,CtBP-E1A blk,TRPML1 blocker,D2 PAM,Six1-Eya2 blk
CCOc1ccc(NC(=O)CN(C)C(=O)Cn2c(=O)oc3ccccc32)cc1OCC,0.0,-7,5,-3,-17,-3
CCN(CC(O)COc1ccc(OCC(O)CN(CC)C2CCCCC2)cc1)C1CCCCC1 (configuration not stated),0.5,.,6,-6,-11,0
CN1C(C)(C)c2ccccc2OS1(=O)=O,-0.9,6,6,-3,-1,17
COC(=O)c1ccccc1NC(=O)c1ccccc1NS(C)(=O)=O,0.5,-2,5,-11,-7,5
COc1ccc(C(=O)NC2CCN(C(=S)Nc3ccc(C)c(C)c3)CC2)cc1,0.6,-5,.,3,-2,16
CCN1C(=O)[C@H]2[C@H]3CN=C(SCc4ccc(C(=O)OC)cc4)N3[C@@](Cc3ccccc3)(C(=O)OC)[C@H]2C1=O,2.9,.,-2,53,-16,-6
COc1ccc(CCNC(=O)c2cccc(Br)c2)cc1OC,0.5,-18,2,3,0,0
Cc1ccc(-c2nnc(SCC(=O)N3CCOCC3)nc2-c2ccc(C)cc2)cc1,1.8,-13,-5,13,15,-9
O=C(NCCCN1CCN(Cc2ccccc2)CC1)C1CCN(c2nnc(-n3cccc3)s2)CC1,-0.4,4,0,39,-15,-8
COc1cc(/C=N/NS(=O)(=O)c2ccc(C)cc2)ccc1OCc1ccc(C(=O)O)cc1,1.4,8,2,1,4,-2
CCn1nc(C(=O)NCc2ccco2)c(Cl)c1Cl,-0.6,-3,6,24,-5,-4
CCCn1c2ccccc2c2cnn(CC(=O)NC(C)CC)c(=O)c21 (configuration not stated),0.4&2.0,-22,-3,-12&-5,-4,-7
COc1ccc(/C(O)=C/Sc2nnc(Cc3ccccc3)o2)cc1,1.9,-4,3,-10,-2,16
Cn1c(SCc2cnc(-c3ccccc3)s2)nnc1C1COc2ccccc2O1 (configuration not stated),-1.0,-10,11,-12,4,8
CC1=C(C(=O)OCc2ccccc2)C(c2ccc3ccccc3c2)NC(=O)N1CCCCCC(=O)O (configuration not stated),0.3,5,0,-9,4,-8
CCOc1ccc(S(=O)(=O)n2c(C)nc3ccccc32)cc1,-0.4,9,7,-11,-3,10
O=C(NCCCN1CCOCC1)c1cn(-c2ccccc2)nc1-c1ccc(Br)cc1,0.1,.,22,-21,-28,2
C=CCn1c(NC(=O)c2ccccc2Cl)c(C#N)c2nc3ccccc3nc21,2.3,5,-8,8,-12,-1
Cc1ccc(C2(C)NC(=O)N(CC(=O)NC(=O)NC(C)C)C2=O)cc1 (configuration not stated),0.8,13,3,-11,-4,8
CCN(CC(=O)Nc1ccc2c(c1)OCCO2)C(=O)/C=C/c1ccc(OC)cc1OC,2.5,7,8,-4,-25,-2
CCC(C)NC(=O)C(Cc1ccccc1)NS(=O)(=O)c1cccc2nsnc12 (configuration not stated),0.0,5,-6,-5,-5,5
Cn1c(N)c(C(=O)COC(=O)Cc2c(F)cccc2Cl)c(=O)n(C)c1=O,1.3,.,-7,7,0,-3
Cc1cc(=O)[nH]c(SCC(=O)Nc2c(C)n(C)n(-c3ccccc3)c2=O)n1,-0.4,-2,-4,10,-5,1
CC(=O)Nc1ccc2c(=O)n(-c3ccccc3)sc2c1,12,.,2,-11,-16,-4
Cc1ccc(N2C(=O)c3ccccc3C2Nc2ccccc2)nc1 (configuration not stated),1.2,-5,6,-13,-13,-1
CCCCCOC(=O)Cc1c(O)c2ccccc2n(C)c1=O,-0.8,1,7,-4,-15,5
COc1ccc(Cl)cc1C=CC=NNS(=O)(=O)c1ccc(C)cc1,1.6,.,14,8,-10,-4
Cc1nc2cc(NC(=O)CSc3nc4c(C)cccc4cc3C#N)ccc2s1,-0.1,10,-6,-4,7,6
COc1ccc(-c2noc(CCC(=O)N3CCN(Cc4ccccc4)CC3)n2)cc1,-0.6,-10,-2,17,-18,-1
NC1=NC(=O)C(Cc2cc(Cl)ccc2Cl)S1 (configuration not stated),-0.1,-18,0,-5,-1,-1
N#Cc1ccc(NC(=O)Cn2cnc(S(=O)(=O)N3CCc4ccccc43)c2)cc1,-0.7,14,-2,12,0,-2
C#CCOCCOCCOCCNc1nc(N2CCOCC2)nc(N2CCN(C(=O)[C@H]([C@@H](C)O)n3cc(CCCCN)nn3)CC2)n1,-0.8,6,0,-11,-56,6
O=C(NCC1CCCO1)NC1CCCCC1 (configuration not stated),-0.7,0,11,-1,-5,2
C=C(C)c1cccc(C(C)(C)NC(=O)N2CCCCC2CC)c1 (configuration not stated),0.9,-9,-3,3,-3,4
O=C(N/C(=C/c1cccc([N+](=O)[O-])c1)C(=O)N1CCCCC1)c1ccco1,-0.1,5,-1,-22,2,-1
Cc1cc(C)nc(N/N=C/c2cn[nH]c2-c2ccc(F)cc2)n1,-0.1,-2,2,6,-2,-1
COc1cccc(-c2nn(C)c3sc(C(=O)NCCCN(C)Cc4ccccc4)cc23)c1,0.4,-6,?,-5,-36,?
COc1ccccc1C(=O)Nc1sc2c(c1C(=O)NCc1ccco1)CCCC2,-0.4,6,0,26,-2,8
CN(C(=O)CSc1nnc(-c2c[nH]c3ccccc23)o1)C1CCS(=O)(=O)C1 (configuration not stated),-0.1,2,-2,7,1,3
O=C(CN(C(=O)CNC(=O)c1cccs1)c1ccc2c(c1)OCCO2)NC1CCCC1,0.5,7,5,-7,-5,2
Cc1ccc(C(=O)Nc2cnc3ccccc3c2)cc1,-1.0,-16,-1,7,-37,-4
COc1ccc(NC(=O)CN(C)S(=O)(=O)c2ccc(Cl)cc2)cc1Cl,0.3,-12,-5,-1,-7,3
CC(=O)NC12CC3CC(C1)CC(C(=O)Nc1nc4ccc(S(C)(=O)=O)cc4s1)(C3)C2,1.0,-4,4,1,-3,-4
Cc1cccc(CCNC(=O)C2CCCN(c3ncnc4c3nc3n4CCCCC3)C2)c1 (configuration not stated),0.0,14,-2,-6,-5,-1
CCC(=O)c1ccc(OC(C)C(=O)NC2(C#N)CCCCC2)cc1 (configuration not stated),-0.7,-2,3,2,-5,-6
CCc1cccc(CC)c1NC(=O)CN1CC(C)SC1=NC1CCCCC1 (configuration not stated),0.6,-16,2,21,-4,0
Cc1ccc(-c2csc3ncnc(-n4nnc5ccccc54)c23)cc1C,-0.3,2,14,-2,19,12
Cc1cc(S(=O)(=O)NC2CCCCC2)ccc1OCC(=O)NCc1ccccn1,1.1,-5,-11,-15,-15,-6
CCOCCCN(CC(=O)NC1CCCC1)C(=O)C(=O)Nc1ccc2c(c1)OCCO2,0.3,-10,3,-12,1,6
O=C(COc1ccccc1-c1ccccc1)Nc1ccc(S(=O)(=O)NCc2ccco2)cc1,-0.8,11,0,13,18,-3

# 2 entries from above in a different format.
# Values run as follows: TRPML1 agonist, TRPV1 potentiator, CtBP-E1A blk, TRPML1 blocker, D2 PAM, Six1-Eya2 blk
> CC(=O)NC12CC3CC(C1)CC(C(=O)Nc1nc4ccc(S(C)(=O)=O)cc4s1)(C3)C2
    1.0, -4, 4, 1, -3, -4
> Cc1cccc(CCNC(=O)C2CCCN(c3ncnc4c3nc3n4CCCCC3)C2)c1 (configuration not stated)
    0.0, 14, -2, -6, -5, -1

# Continuation:
SMILES,TRPML1 agonist,TRPV1 potentiator,CtBP-E1A blk,TRPML1 blocker,D2 PAM,Six1-Eya2 blk
O=C(NCc1ccccc1F)c1ccc(S(=O)(=O)N2CCCC2)cc1,-0.9,.,2,15,-3,0
CC1CC(=O)N(CC(=O)NCc2ccc3c(c2)OCO3)c2ccccc2S1 (configuration not stated),0.1,-6,5,15,-9,5
O=C(N1CCN(c2ccccc2)CC1)C(F)(F)C(F)(F)F,0.4,-17,9,-2,0,1
Cc1cc(S(=O)(=O)N2CCOCC2)ccc1OCC(=O)Nc1cccc(F)c1,-0.9,9,-3,-7,-8,3
O=C(O)c1ccc2c(c1)C(=O)N(CCC1=CCCCC1)C2=O,2.8,17,1,10,-23,-6
Cc1ccc(NC(=O)C(C)OC(=O)c2cc(=O)[nH]c3ccccc23)cc1S(=O)(=O)N1CCOCC1 (configuration not stated),2.5,.,-8,23,-8,-27
O=[N+]([O-])c1cc(Br)c2nsnc2c1N1CCOCC1,29,1,?,-11,-4,?
O=[N+]([O-])c1cccc(-c2ccc(SCc3cccnc3)nn2)c1,1.4,-12,-13,-1,-2,?
Cn1c(CCN2CCCCC2)nc2cc([N+](=O)[O-])ccc21,0.2,4,11,-8,-37,0
CCOC(=O)CC1NC(=O)c2ccccc21 (configuration not stated),-0.1,-1,2,-4,3,4
CCN(CC)c1cc(C)c(C#N)c2nc3ccccc3n12,-0.1,0,4,25,-1,-10
CCCCNC(=O)C1(C)CCN1C(=O)Cc1cccc2ccccc12 (configuration not stated),-1.1,.,32,.,0,21
